# High-throughput results: PubChem, Broad Institute
# rRNA inh HTS: inhibitors of bacterial rRNA selective over humanized ribosomes; E. coli WT GFP vs humanized-ribosome RFP mutants, fluorescence, 24 h; active compounds read low; DMSO median 0, no signal -100; GFP signal change (wild-type ribosome), % (no concentration beside the values); actives 1.6% (n = 350,000); AID 720706;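 active means significant combined selectivity score with lowered wild-type GFP, culture density cut under 30%, mutant RFP and density less affected; inactive means any of these conditions unmet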; further: one replicate is shown; some compounds called inactive have numbers as strong as hits
# Calb FLC: C. albicans growth modulation with fluconazole; C. albicans CaCi-2 (fluconazole-resistant clinical isolate) + fluconazole, Alamar Blue growth, 48 h; growth inhibition, % (test concentration not listed); actives 0.57% (n = 300,000); AID 1979;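 active means most replicates above 75%; inconclusive means exactly half above 75%; inactive means most below 75%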;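 further: all wells also contain fluconazole at 8 µg/ml as a sub-toxic cotreatment; 0% = median of DMSO wells and 100% = median of geldanamycin control wells; wells of about 8 µL received 7.5 nL stock; the first replicate is given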
# T cruzi inh: blocks replication of Trypanosoma cruzi; T. cruzi beta-gal in NIH3T3, luminescence, 90 h; inhibition, % (concentration not given with the values); actives 1.4% (n = 300,000); AID 1885;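 active means mean inhibition across valid replicates above about 55%, limit read from the data; inconclusive means mean below that limit but half or more replicates reach it; inactive means mean below it, under half of replicates reach it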;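 further: signal also drops with host cell toxicity which is not excluded here; 0% = plate median of DMSO wells and 100% = zero luminescence signal; higher percent means less beta-gal luminescence so fewer parasites; stock transfer was 50 nL into about 50 µL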
# RanGTP-Impb inh: disruptors of Ran-importin-beta complex formation – biochemical, FRET, CFP-Ran, YFP-importin-beta, homogeneous, primary screen; actives 1.1% (n = 300,000); cell-free CFP-Ran/YFP-importin-beta FRET ratio; inhibition, % (no concentration beside the values);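 active means most replicates above 15%; inconclusive means exactly half above 15%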;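 further: 0% = DMSO wells and 100% = Ran loaded with GDP instead of GTP; wells of about 40 µL received 100 nL stock; the first replicate is given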
# AF4-AF9 inh: MLL-AF4/AF9 protein interaction inhibition; actives 0.47% (n = 350,000); inhibition, % at 10 µM; AlphaScreen, biotin-AF4 peptide binding to FLAG-AF9; P42568;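 active means every replicate reaching a set inhibition limit, whatever the replicate mean, cut at about 25% in these data; inconclusive means mean inhibition reaches that limit but some replicates miss it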;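 further: 0% = plate neutral control median and 100% = total signal loss; the record names both 10 and 1 µM as test concentration; the first replicate is given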
# Target sequence (P42568 whole entry, looked up): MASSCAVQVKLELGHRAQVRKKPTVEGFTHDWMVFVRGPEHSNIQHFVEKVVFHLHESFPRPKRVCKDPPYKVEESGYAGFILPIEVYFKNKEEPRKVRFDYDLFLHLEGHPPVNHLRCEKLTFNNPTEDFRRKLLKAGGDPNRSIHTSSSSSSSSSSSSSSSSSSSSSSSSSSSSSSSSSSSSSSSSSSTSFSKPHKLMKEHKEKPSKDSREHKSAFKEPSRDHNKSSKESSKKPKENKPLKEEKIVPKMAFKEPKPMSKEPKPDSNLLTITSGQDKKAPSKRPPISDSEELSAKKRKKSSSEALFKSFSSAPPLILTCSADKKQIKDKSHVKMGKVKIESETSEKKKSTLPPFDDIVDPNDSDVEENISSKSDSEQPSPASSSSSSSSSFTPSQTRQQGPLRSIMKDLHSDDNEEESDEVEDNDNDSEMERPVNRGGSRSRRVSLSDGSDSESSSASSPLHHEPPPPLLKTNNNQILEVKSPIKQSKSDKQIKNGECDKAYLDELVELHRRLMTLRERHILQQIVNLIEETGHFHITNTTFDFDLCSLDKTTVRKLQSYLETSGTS
# Beta cell apopt: beta cell apoptosis inhibition; INS-1E cytokine-induced death, ATP luminescence, 48 h; percent of positive-control rescue, neutral wells zero; protection from apoptosis, % (test concentration not listed); actives 0.8% (n = 300,000); AID 435005;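 active means all replicates at 75% or more, or half of them and the mean; inconclusive means half reach 75% but not the mean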;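 further: 0% = cytokine-treated negative control wells and 100% = positive control rescue; higher means more ATP so stronger rescue from cytokine killing; wells of about 40 µL received 100 nL stock; the first replicate is given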
# ALR H2O2 inh: inhibitors of human sulfhydryl oxidase ALR | purified ALR, DTT oxidation, H2O2 HRP-luminol luminescence | inhibition, % (concentration not given with the values) | actives 3.8% (n = 290,000);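 active means mean and each replicate at 75% or more; inconclusive means only one of the two met; inactive means neither met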;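 further: stock transfer was 7.5 nL into about 7.5 µL; 0% = neutral wells and 100% = wells with inactivated enzyme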
# Target sequence (P55789 whole entry, looked up): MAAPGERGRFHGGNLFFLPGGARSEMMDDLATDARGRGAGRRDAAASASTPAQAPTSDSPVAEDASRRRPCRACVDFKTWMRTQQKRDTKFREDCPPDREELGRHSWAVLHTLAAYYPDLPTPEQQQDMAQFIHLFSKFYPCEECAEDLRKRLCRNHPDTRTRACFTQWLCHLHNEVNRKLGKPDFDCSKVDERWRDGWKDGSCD
# FGF22 binding: binders of recombinant human FGF22 by thermal shift; calls only at 9.99 µM; actives 1.5% (n = 340,000); AID 651658; Q9HCT0; SYPRO orange fluorescence; percent of sucrose octasulfate shift, DMSO zero;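 active means melting point raised past a set limit in the mean and every replicate; inconclusive means no clear call; three in four hits are not shown here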
# Target sequence (Q9HCT0 whole entry, looked up): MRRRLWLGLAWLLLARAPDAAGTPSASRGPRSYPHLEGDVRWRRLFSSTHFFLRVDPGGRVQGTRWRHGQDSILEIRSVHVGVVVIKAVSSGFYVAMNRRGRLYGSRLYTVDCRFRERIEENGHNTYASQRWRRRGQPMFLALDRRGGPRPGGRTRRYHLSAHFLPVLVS
# rRNA inh HTS OD600: second read-out of rRNA inh HTS, no call of its own (marks repeat the call); OD600 change, %; measured here: OD600 growth;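 optical density of the mix in the first replicate; 0 = DMSO median and -100 = no signal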
# rRNA inh HTS RFP: second read-out of rRNA inh HTS, no call of its own (marks repeat the call); RFP signal change, %; measured here: RFP humanized mutant strains;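 first replicate; 0 = DMSO median and -100 = no signal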
# * marks the source's active call; other numbers are inactive results; i = inactive; ? = inconclusive; · = not tested or not shown. This is a subset. The share of hits here may be higher or lower than overall.
no.	Molecule	rRNA inh HTS	rRNA inh HTS OD600	rRNA inh HTS RFP	Calb FLC	T cruzi inh	RanGTP-Impb inh	AF4-AF9 inh	Beta cell apopt	ALR H2O2 inh	FGF22 binding
1	O=C(CSc1nn(-c2ccccc2)c(=S)s1)NC(=O)NCc1ccco1	·	·	·	-5	1	0.3	·	-6	-5	·
2	CCOc1ccc(-c2ccc(SCC(=O)NC3CCCCC3)nn2)cc1	3	16	0.5	-2	12	2.2	-3.8	-9	-3	i
3	CCN1CCc2c(sc(NC(=O)c3ccc(S(=O)(=O)N4CCCC4)cc3)c2C(=O)NC)C1	-10	-1	-1.9	-3	9	46*	2.3	·	6	i
4	CCOc1ccc(CCNC(=O)COC(=O)c2ccc(Br)o2)cc1OCC	6	16	2.0	-13	6	4.3	-11	·	1	i
5	COc1ccc(C(=O)Nc2ccccc2N2CCCCC2)cc1[N+](=O)[O-]	13	12	-1.8	8	41	4.4	12	6	-10	i
6	CCOC(=O)c1[nH]c2ccc(OC)cc2c1NC(C)=O	·	·	·	2	-17	0.5	·	-3	-1	·
7	COc1cccc(CN2CCNC(=O)C2CC(=O)NCC2CCOCC2)c1 (stereo not drawn)	13	14	0.5	10	-10	4.2	-0.7	·	-17	i
8	O=C(CCc1ccc(S(=O)(=O)NCCc2ccccc2)cc1)Nc1ccc2c(c1)OCCO2	-6	-1	-1.9	3	-12	-2.0	0.1	·	5	i
9	Fc1ccc(-c2oncc2-c2nnnn2-c2ccccc2)cc1F	·	·	·	6	-18	11	·	-6	-10	·
10	COc1ccc(S(=O)(=O)NCCc2nnc3ccc(SCC(=O)Nc4cc(C)on4)nn23)cc1	14	8	-0.5	-11	-20	?	0.3	-15	22	i
11	Cc1ccc(-n2c(N)c(Br)c(=O)[nH]c2=O)cc1C	14	7	1.6	-5	-8	2.2	-1.6	·	1	i
12	COC(=O)C(C)NC(=O)C(C)NC(=O)OCc1ccccc1 (stereo not drawn)	·	·	·	-14	-13	-0.5	·	-6	-7	·
13	COc1ccc(-c2cc(C(=O)Nc3c(C)nn(Cc4ccccc4)c3C)no2)cc1	·	·	·	48	19	4.4	·	-1	-1	·
14	O=C(NC1CCCC1)C(c1ccc(Cl)cc1)N(Cc1ccc(F)cc1)C(=O)CCl (stereo not drawn)	·	·	·	-7	-9	3.0	·	-8	2	·
15	COc1cccc(NC(=O)Cn2nnc(C(=O)NCCc3ccccc3)c2N)c1	8	7	-0.4	-3	2	-2.6	-0.7	-7	0	i
16	COc1ccc(Sc2ncnc3onc(C)c23)cc1	15	17	0.6	?	·	-4.9	-1.1	-7	·	i
17	CC(=O)NC1=NN(C(C)=O)C2(S1)C(=O)N(CC(C)C)c1ccc(C)cc12 (stereo not drawn)	11	-2	3.1	-6	-9	0.6	-1.4	-6	-10	i
18	CCC(NC(=O)c1cc(COc2cncc(Cl)c2)on1)c1ccncc1 (stereo not drawn)	7	4	-1.3	2	11	-1.9	3.1	3	-6	i
19	CCn1c(C)nc2cc(C(=O)NNC(=S)Nc3ccc(OC)cc3)ccc21	-4	4	-2.4	18	-5	0.2	-0.9	2	16	i
20	Cc1occc1-c1nnc(SCC(=O)c2ccc(Cl)cc2)n1CC1CCCO1 (stereo not drawn)	3	16	-2.6	-20	2	-6.4	·	0	-3	·
21	O=C1OC(c2ccccc2)=N/C1=C\N1CCCCC1	-10	-10	1.8	-8	-9	3.5	-20	-3	·	i
22	CC1CCCN(C(=O)Cn2nnc(-c3cccnc3)n2)C1 (stereo not drawn)	·	·	·	6	0	0.8	·	-18	-4	·
23	C/C(CC(=O)Nc1ccc(Cl)cc1C(F)(F)F)=N\NC(=O)c1cccs1	-5	6	0.6	-4	-2	-3.3	11	-4	-5	i
24	Oc1ccc(/C=N/N2CCCCC2)c(O)c1O	14	13	9.8	12	-9	-2.5	-13	-9	64	i
25	O=C(NC(C(=O)c1ccccc1)n1cnccc1=O)c1ccccc1 (stereo not drawn)	·	·	·	9	-12	0.7	·	-12	31	·
26	COCCCn1c(Cc2csc(Nc3cccc(Cl)c3)n2)nnc1SCC(=O)OC1CCCCC1	·	·	·	-6	16	-1.1	·	-2	-4	·
27	COC(=O)c1c(C)[nH]c(C(=O)OCC(=O)c2ccc(C)s2)c1C	-20*	-7.2*	1.1*	·	·	·	-1.7	-1	31	i
28	COc1ccc(NC(=S)NCCc2ccccc2)c(OC)c1	-16	-12	-3.4	-16	-3	-1.3	9.6	8	-6	i
29	COC(=O)c1ccc2c(=O)[nH]c(COC(=O)c3c(-c4ccccc4Cl)noc3C)nc2c1	-7	-7	-0.3	-5	-12	·	-0.5	0	-5	i
30	CC1CCC(NC(=O)Cn2cnc3sccc3c2=O)CC1 (stereo not drawn)	4	3	-1.1	·	·	·	0.2	-4	1	i
31	Cc1ccc(-c2noc(C3CCN(S(=O)(=O)c4ccc5c(c4)OCCO5)CC3)n2)o1	-9	-14	-4.3	-5	-6	7.8	-3.5	20	-2	i
32	Cc1noc(C)c1S(=O)(=O)Nc1ccc(O)c2c(=O)cc(-c3ccccc3Cl)oc12	10	-12	6.8	10	-15	-3.9	-0.1	1	18	i
33	CN(CC(=O)Nc1ccccc1Cl)C(=O)COC(=O)c1ccc(=O)n(Cc2ccccc2)n1	5	11	1.6	14	14	?	-8.9	3	·	i
34	CNC(=S)NCc1ccc(Cl)cc1	13	12	6.1	6	-3	-2.4	·	-2	-5	·
35	O=C(COc1ccc(-n2cnnn2)cc1)Nc1ccc(F)c(Cl)c1	-5	0	0.6	·	·	·	0.2	-5	-14	i
36	CCn1cc(C(=O)NN)c(=O)c2cc(F)c(N3CCCCC3)cc21	-35	-55	-3.7	4	5	1.1	1.1	·	·	i
37	Nc1cccc(/C=C/C(=O)O)c1	5	3	0.1	10	-16	-2.7	-15	-3	-13	i
38	CCCC(C(=O)NC1CCCC1)N(C(=O)Cn1nnc(-c2ccc(C)o2)n1)c1ccccc1F (stereo not drawn)	-3	-4	1.0	-6	1	-2.8	-12	·	·	i
39	O=C(CC1(O)C(=O)N(CN2CCOCC2)c2ccccc21)c1ccccc1 (stereo not drawn)	·	·	·	-46	-2	1.0	·	-9	·	·
40	Cc1ccc(S(=O)(=O)N(C)CC(=O)NC2CCCC2)cc1	·	·	·	0	-13	-2.2	·	3	-3	·
41	Cc1cc(C)c(NC(=O)C2CCC(=O)N2)c(C)c1 (stereo not drawn)	12	15	1.6	-4	-9	-1.3	-1.3	-3	0	i
42	COc1ccccc1NS(=O)(=O)c1cccc(C(=O)N/N=C/c2ccc(OCC(=O)O)cc2)c1	4	7	2.6	-3	0	1.6	2.3	-6	-2	i
43	COc1ccc(NS(=O)(=O)c2cccc(C(=O)NNC(=O)c3cncc(Br)c3)c2)cc1	-3	-14	-1.2	3	-9	0.9	-0.1	5	25	i
44	Cc1cc(C)c2c3c(sc2n1)C1(CCSCC1)C(C#N)=C(N)O3	·	·	·	-13	64*	7.1	·	12	-4	·
45	Cc1ccc(NS(=O)(=O)c2ccc3c(c2)NC(=O)CCS3)c(C)c1	-33*	-23*	-1.6*	7	1	2.8	-5.4	0	-21	i
46	CN(CC(=O)NCC(=O)Nc1ccc(F)c(F)c1F)C1CCS(=O)(=O)C1 (stereo not drawn)	12	11	2.5	·	·	·	-2.6	-2	1	i
47	O=C(CNC(=O)c1ccccc1F)NC1CC1	·	·	·	-1	-37	4.4	·	-4	-16	·
48	Cc1cc(OCCCCn2ccnc2)cc(C)c1Cl	-57	-78	-17	49	69*	-2.9	12	4	1	i
49	Cc1ccc(S(=O)(=O)N2CCN(C(=O)c3ccc(-n4cncn4)c([N+](=O)[O-])c3)CC2)cc1	-6	4	-1.2	-1	16	·	-7.9	-2	-16	·
50	CCCCOP(=O)(c1ccc(N(C)C)cc1)C(O)c1ccc(OC)c(OC)c1 (stereo not drawn)	-12	1	1.3	32	-14	1.3	-1.3	-13	-14	i
51	NS(=O)(=O)c1cccc(NC(=O)CSc2nnnn2-c2ccccc2)c1	-12	-17	1.3	-1	-9	-3.2	-0.2	-7	-6	i
52	Clc1cccc(-c2ccc3ncnc(NCc4cccnc4)c3c2)c1	-10	5	6.5	·	·	·	-11	1	-2	i
53	O=C(CCl)Nc1ccccc1C(=O)c1ccccc1	8	-4	-2.2	18	-18	2.0	0.0	-1	17	i
54	N#C/C(=C1\C(=O)Nc2c(Cl)cc(Cl)cc21)c1nnc2n1CCCCC2	·	·	·	14	-5	-0.5	·	-11	?	·
55	Cc1ccccc1CNC(=O)C(=O)NCCC1CCCCN1S(=O)(=O)c1cccs1 (stereo not drawn)	-1	-10	0.2	-2	25	0.2	4.7	3	·	i
56	O=C(C[C@@H]1C/C=C\CCC(=O)OC[C@H](Cc2ccccc2)NC1=O)N[C@@H](CO)Cc1ccccc1	-5	13	-14	·	·	·	-7.5	0	0	i
57	Cc1ccc(OCC(=O)Nc2nnn(C)n2)c(C)c1	·	·	·	-1	11	-2.7	·	-4	-2	·
58	CC(C)(C)c1ccc(NC(=O)CSc2n[nH]c(=O)n2-c2cccnc2)cc1	0	6	-0.8	21	13	1.9	-0.4	-1	-17	i
59	CCOC(=O)c1ccc(NC(=O)c2cc(S(=O)(=O)N3CCOCC3)cn2C)cc1	-2	0	-1.7	-7	-11	-1.4	-4.4	-4	7	i
60	COC(=O)C1=C(N)Oc2cc(N(C)C)ccc2C1c1ccccc1OC (stereo not drawn)	·	·	·	6	2	24*	·	·	62	·

# (next part)
no.	Molecule	rRNA inh HTS	rRNA inh HTS OD600	rRNA inh HTS RFP	Calb FLC	T cruzi inh	RanGTP-Impb inh	AF4-AF9 inh	Beta cell apopt	ALR H2O2 inh	FGF22 binding
61	O=C(/C=C/c1ccc(Br)o1)Nc1nnc(C2CC2)s1	·	·	·	18	-2	-3.4	·	-17	29	·
62	CCN(CC)S(=O)(=O)c1ccc2c(c1)nc(CCC(=O)Nc1ccccc1Cc1ccccc1)n2CC	·	·	·	-3	51	5.4	·	6	-20	·
63	CC1CCN(C(=O)c2cc3nc(-c4ccccc4)cc(-c4ccccc4)n3n2)CC1	·	·	·	9	42	2.5	·	26	6	·
64	COC(=O)CSc1nc2ccccn2c(=O)c1C=O	28	14	-0.5	16	-8	-1.5	0.9	1	-24	i
65	COc1ccccc1CNC(=O)C(CCSC)NC(=O)c1cccc(S(=O)(=O)N2CCOCC2)c1 (stereo not drawn)	17	19	5.6	·	·	·	0.4	-6	-8	i
66	CCNC(=O)CSc1nnc(-c2ccccc2)n1-c1ccc(OCC)cc1	·	·	·	-4	0	2.2	·	6	0	·
67	Cc1nn(CCCC(=O)Nc2cc(Oc3ccc(F)cc3)cc([N+](=O)[O-])c2)c(C)c1[N+](=O)[O-]	·	·	·	14	47	5.0	·	7	-15	·
